Assay outcomes deposited in PubChem by National Center for Advancing Translational Sciences (NCATS).
PINK1 modulator: modulators of PINK1 expression. PINK1 immunofluorescence, high-content cytometry, 24 h. Potency, µM (series often up to 76.6 µM), without a hit: at the highest dose activation (PINK1 increase), hits mostly activators. 410,000 compounds, 0.2% hits. AID 624263; active = well fitted activation curve with a large enough effect; inconclusive = small, poorly fitted or top-dose-only effect; inactive = flat fitted curve, though single readings scatter; cell line not stated here;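 also: potency is read from the fitted curve at half-maximal effect; % of control where 0% means no effect; nearly all actives have a fitted effect of over 65% in size; a mitochondrial uncoupler was the plate control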
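Measures PINK1 amount and localization on or inside mitochondria by immunofluorescence. Stable cells get compounds at 5 concentrations for 24 hours before fixation and staining; CCCP controls included.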
TRPML1 blocker: blocks the human TRPML1 channel; activity change, negative = inhibition, % (no concentration beside the values); TRPML1-inducible cells, Ca2+ dye fluorescence, FDSS; hits give low values; inhibition of EC80 agonist-evoked calcium signal; Q9GZU1; AID 624415; 390,000 compounds, 0.02% hits; in the data active means activity change below about -50%; inconclusive means about -30% to -50%; inactive means above about -30%;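 also: stimulus is agonist 54-4 at its EC80 concentration; % is scaled to controls: 0 for no effect and ±100 for the full control effect; compound concentration not given in the record; the text of the record puts the active cut at -80%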
Target sequence (Q9GZU1 whole entry, looked up): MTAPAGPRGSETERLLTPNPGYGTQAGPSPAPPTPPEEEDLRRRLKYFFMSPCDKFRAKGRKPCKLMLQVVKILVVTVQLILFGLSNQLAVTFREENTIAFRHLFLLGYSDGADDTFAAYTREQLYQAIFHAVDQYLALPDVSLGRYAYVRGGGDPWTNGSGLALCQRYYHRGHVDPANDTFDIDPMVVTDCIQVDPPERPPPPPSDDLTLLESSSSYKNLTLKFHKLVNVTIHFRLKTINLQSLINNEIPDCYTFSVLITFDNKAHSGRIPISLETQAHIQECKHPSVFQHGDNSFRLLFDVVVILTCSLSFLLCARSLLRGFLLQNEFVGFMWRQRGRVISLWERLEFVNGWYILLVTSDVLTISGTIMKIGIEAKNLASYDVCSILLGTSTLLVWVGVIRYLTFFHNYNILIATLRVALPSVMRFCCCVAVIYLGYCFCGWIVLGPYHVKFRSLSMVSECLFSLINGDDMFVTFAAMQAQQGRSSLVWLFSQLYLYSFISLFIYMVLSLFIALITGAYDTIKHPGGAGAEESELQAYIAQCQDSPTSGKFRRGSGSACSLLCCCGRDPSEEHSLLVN
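Calcium fluorescence in TRPML1-DL cells induced overnight with Tet: a 110 s read after compound pin addition, then a 110 s antagonist read after challenge with 54-4 at 4 uM final (EC80).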
Six1-Eya2 blk: blocks human Six1 binding to Eya2; 360,000 compounds, 0.56% hits; AlphaScreen GST-Six1/His-Eya2 binding, biochemical; hits give low values; control for the full effect not named in the record; AID 651725; activity change, % (no concentration beside the values); Q15475+O00167; in the data active = activity change below about -65%; inconclusive = about -30% to -65%; inactive = above about -30%; also: % is scaled to controls: 0 for no effect and ±100 for the full control effect
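GST-Six1 + His-Eya2 (5X stock: 250/500 nM); Tris pH 8.0, 300 mM NaCl, 0.05% BSA, 0.02% Tween 20; GSH donor/Ni acceptor beads; 1 h 37 °C dark; AlphaScreen readout.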
TRPML1 agonist: agonists of human TRPML1 channel | Q9GZU1 | TRPML1-expressing cells, Ca2+ dye fluorescence, FDSS; host cell line not named in the record; reference of the full effect not given here | activation, % (test concentration not listed) | 410,000 compounds, 0.12% hits; in the data active = activation above about 50%; inconclusive = about 30% to 50%; inactive = below about 30%; also: 0% is about no effect; the text of the record puts the active cut at 80%
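Calcium fluorescence on an FDSS kinetic reader gave the read-out. Tet-induced TRPML1-DL cells were plated overnight, dye-loaded (Ca8 with quencher, 45-90 min, room temperature, dark), then read 110 s after compound addition, and again 110 s after 4uM final 54-4 (EC80).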
D2 PAM: positive allosteric modulators of human D2 dopamine receptor | P14416 | DiscoveRx D2 beta-arrestin cells, luminescence, 90 min; 100% = 57 uM dopamine signal | potentiation, % (concentration not given with the values) | 360,000 compounds, 0.23% hits; active = potentiation of 50% or more; inconclusive = 30% to 50%; inactive = 30% or less;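 also: tested on top of an EC20 dose of dopamine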
Target sequence (P14416 whole entry, looked up): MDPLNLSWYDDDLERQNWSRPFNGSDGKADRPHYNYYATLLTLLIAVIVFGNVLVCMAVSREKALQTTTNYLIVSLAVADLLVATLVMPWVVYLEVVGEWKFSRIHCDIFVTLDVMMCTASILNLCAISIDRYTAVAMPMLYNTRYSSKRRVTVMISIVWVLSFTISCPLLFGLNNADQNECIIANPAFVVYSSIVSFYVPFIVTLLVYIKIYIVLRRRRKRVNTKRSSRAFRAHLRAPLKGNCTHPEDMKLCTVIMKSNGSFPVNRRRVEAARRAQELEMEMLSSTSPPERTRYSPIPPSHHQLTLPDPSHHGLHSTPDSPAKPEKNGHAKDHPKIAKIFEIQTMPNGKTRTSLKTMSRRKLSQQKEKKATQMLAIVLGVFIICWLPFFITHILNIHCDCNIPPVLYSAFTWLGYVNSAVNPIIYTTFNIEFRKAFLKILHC
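PathHunter beta-arrestin assay in DiscoveRx D2 cells. Compounds were added with an EC20 of dopamine (50 nM final) for 90 min at 37 deg C. Luminescence was read 1 h after detection reagent, with 57 uM dopamine as the EC100 control.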
D2 agonist: activates the human D2 dopamine receptor; P14416; DiscoveRx PathHunter D2 beta-arrestin, luminescence, 90 min; 100% = 57 uM dopamine signal; activation, % (test concentration not listed); 360,000 compounds, 0.084% hits; in the data active = activation above about 40%; inconclusive = about 15% to 40%; inactive = below about 15%; also: compound concentration not given in the record; the text of the record calls up to 30% inactive
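Agonist mode: compounds alone added to overnight-plated D2 PathHunter cells for 90 min at 37 C, with 57 uM final dopamine (EC100) defining full response. Beta-arrestin recruitment detected by chemiluminescent reagent, read after 1 h at ambient temperature.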
* marks the source's active call; other numbers are inactive results; ? = inconclusive; nt = not tested or not shown; & = joins results of further samples; [ ] = dose if it differs, or a comment.

SMILES	PINK1 modulator	TRPML1 blocker	Six1-Eya2 blk	TRPML1 agonist	D2 PAM	D2 agonist
CCOC(=O)c1c(CN2CCCCC2C)oc2ccc(OC)cc12 (configuration not stated)	30%[38.3 µM]	-4	-1	2.5	-22	-4.6
CCn1cc(C2=NOC(C(=O)Nc3c(C)nn(Cc4ccc(F)cc4)c3C)C2)c(C)n1 (configuration not stated)	0.3%	17	3	-0.7	-6	-2.9
CCOC(=O)C1CCN(C(=O)CCC2CCCC2)CC1	-1.7%	0	10	-0.1	-14	-3.1
COc1cc(NC(=O)NCC2CCN(Cc3ccccc3C)CC2)cc(OC)c1OC	0.9%	8	-26	-0.7	-14	0.0
CCc1nn(CC(=O)N2CCC(C)CC2)c(=O)c2cc3occc3n12	0.6%	16	nt	-0.8	nt	nt
COCCCNC(=O)CCn1c(=O)c2ccccc2n(CC(=O)NCCc2ccc(OC)c(OC)c2)c1=O	-1.6%	11	-12	0.5	-1	-2.2
COc1cc(-c2nc3ccccn3c2Nc2ccccc2C)ccc1O	0.5%	0	nt	-1.0	nt	nt
CCN1CCN(CCOc2cccc(Cl)c2Cl)CC1	-3.0%	-7	5	-0.2	-5	1.2
Cc1c(NC(=O)C(C)OC(=O)CCc2ccccc2)c(=O)n(-c2ccccc2)n1C (configuration not stated)	0.0%	-14	4	-0.5	-7	-5.8
Cc1ccc(S(=O)(=O)NC(C(=O)Oc2ccc3c(C)c(Cl)c(=O)oc3c2)c2ccccc2)cc1 (configuration not stated)	0.8%	29	-6	0.5	1	0.0
Cc1ccc2cc3c(N)c(C(=O)N4CCOCC4)sc3nc2c1	0.0%	-10	-4	4.4	-8	-3.1
CN(C)CCCNC(=S)N1CCC(c2nc3ccccc3[nH]2)CC1	1.6%	16	1	0.9	-3	-3.0
CC(=O)N1CCOc2ccc(S(=O)(=O)Nc3cccc(C)c3)cc21	0.9%	0	-2	-0.5	-6	-1.6
CC(C)c1nnc(NC(=O)CCc2ccccc2)s1	-0.3%	9	4	3.5	-5	-0.2
COC(=O)c1sc(SC)c2c1CC(C)(C)C/C2=N/O	4.4%	0	8	1.5	11	-2.1
Cc1ccc(C)n1-c1ccc(N2CCOCC2)cc1	1.8%	4	-8	-0.3	-1	-1.1
Cc1ccc(NC(=O)C2C3C=CC4(O3)C2C(=O)N(CCN2CCOCC2)C4C(=O)NC2CCCCC2)cc1C (configuration not stated)	0.5%	17	1	0.2	-5	-1.9
Cc1cccc(C)c1NC(=S)N(CCN(C)C)C(C)c1ccccn1 (configuration not stated)	1.6%	15	-83*	0.1	-11	-1.7
NCC(=O)NCC(=O)NC[C@H]1O[C@@H](n2cnc3c(N)ncnc32)[C@H](O)[C@@H]1O	0.7%	-1	5	-0.3	-7	-3.1
COc1cc(OC)cc(-n2c(=O)c3sccc3n(Cc3c(C)cc(C)cc3C)c2=O)c1	2.3%	-12	nt	0.5	nt	nt

Some of the entries so far, bar-delimited.
mol | PINK1 modulator | TRPML1 blocker | Six1-Eya2 blk | TRPML1 agonist | D2 PAM | D2 agonist
CCOC(=O)c1c(CN2CCCCC2C)oc2ccc(OC)cc12 (configuration not stated) | 30%[38.3 µM] | -4 | -1 | 2.5 | -22 | -4.6
CCn1cc(C2=NOC(C(=O)Nc3c(C)nn(Cc4ccc(F)cc4)c3C)C2)c(C)n1 (configuration not stated) | 0.3% | 17 | 3 | -0.7 | -6 | -2.9
CCOC(=O)C1CCN(C(=O)CCC2CCCC2)CC1 | -1.7% | 0 | 10 | -0.1 | -14 | -3.1

Next section
SMILES	PINK1 modulator	TRPML1 blocker	Six1-Eya2 blk	TRPML1 agonist	D2 PAM	D2 agonist
COc1cc(/C=N/NS(=O)(=O)c2ccc3ccccc3c2)ccc1OCc1ccc(C(=O)O)cc1	0.1%	19	-2	0.7	2	-2.8
COc1ccccc1N1CCN(CC(O)COc2ccc(C)c(C)c2)CC1 (configuration not stated)	2.1%	39	-5	1.2	-20	-1.6
CC(C)NC(=O)OC1CC2CC1[C@H]1CCCCN1C2=O (some centres not stated)	1.4%	nt	0	-0.3	nt	nt
CCOC(=O)C1(Cc2ccccc2C)CCCN(C(=O)CCn2nccc2C)C1 (configuration not stated)	0.7%	-6	2	-0.5	-7	-6.2
CC1(C)CC(=O)N(c2cccc(C(F)(F)F)c2)C(=O)C1	-0.6%	?	24	1.2	-1	1.7
COc1ccccc1C1(CCNC(C)c2cccs2)CCOC(C(C)C)C1 (configuration not stated)	7.9%	10	5	1.1	-10	1.6
COc1cc2c(cc1OC)CN(c1ncccc1[N+](=O)[O-])CC2	6.6%	2	-20	3.0	3	-0.7
O=C(NC1CCN(Cc2ccccc2)CC1)c1ccccc1OCc1ccccc1Cl	24%	-3	-15	-0.1	-22	-1.3
CCCCNCCS(=O)(=O)NCc1ccc(OC)cc1	-0.6%	9	5	-0.9	-16	-1.6
O=C(Cn1cc(SCc2cccc(Cl)c2)c2ccccc21)N1CCCCCC1	5.3%	53	nt	0.7	nt	nt
O=C(Nc1cc(C(F)(F)F)ccc1-n1cncn1)C1CC1	-3.2%	-6	5	-0.2	-61	0.1
Cc1ccc(SCCC(=O)NC2CC2)cc1	-0.7%	26	10	1.2	-4	-0.8
CC(C)(C)c1ccc(C(=O)Nc2onc3c2CCCC3)cc1	3.7%	-2	nt	?	nt	nt
COc1ccc(/C=C/C(=O)c2ccc(OC)cc2OC)c(OC)c1	-0.8%	nt	2	nt	-18	-4.1
COc1cc(Cl)ccc1S(=O)(=O)n1nc(C)cc1C	15%[38.3 µM]	6	-1	0.8	-5	-2.7
Cc1ccc(S(=O)(=O)NCC(=O)Nc2cccc([N+](=O)[O-])c2)cc1	2.0%	-13	-4	-1.2	-9	0.6
Cc1cccc(C)c1-n1c(C)nn(CCOc2ccccc2)c1=O	1.1%	3	4	-0.5	-8	-6.6
COc1ccc(C(=O)Nc2cc(C)nn2-c2cccc(F)c2)cc1	-0.7%	18	-4	0.0	0	0.0
CCOc1ccc(S(=O)(=O)N2CCN(Cc3nc4ccc(C)cc4o3)CC2)cc1	-0.1%	-18	nt	0.7	nt	nt
C[C@H](CO)N1C[C@H](C)[C@H](CN(C)S(=O)(=O)c2cn(C)cn2)Oc2ccc(NC(=O)Nc3ccc(C(F)(F)F)cc3)cc2CC1=O	9.7%	28	3	0.3	0	1.8

Six1-Eya2 blk, hit marks shown above.
smiles	PINK1 modulator	TRPML1 blocker	Six1-Eya2 blk	D2 PAM	D2 agonist
Cc1cccc(C)c1NC(=S)N(CCN(C)C)C(C)c1ccccn1 (configuration not stated)	1.6%	15	-83*	-11	-1.7

Later entries:
SMILES	PINK1 modulator	TRPML1 blocker	Six1-Eya2 blk	TRPML1 agonist	D2 PAM	D2 agonist
O=c1c2c(nc3c(-c4ccc(Cl)cc4)c[nH]n13)CCC2	2.5%	4	-12	1.7	-12	2.7
O=C(Nc1ccccc1C(=O)O)c1ccc2ccccc2n1	0.1%	3	-28	-0.8	-4	-2.5
COc1ccc(C2=NN(C(=O)CCC(=O)O)C(c3ccccc3F)C2)cc1 (configuration not stated)	0.1%	7	11	-0.4	-3	0.4
CCC(=O)NNC(=O)c1c(O)c2ccccc2[nH]c1=O	11%	-2	-1	-0.7	1	-2.0
Fc1ccccc1N=C1NN=C(c2ccccc2)CS1	?	26	?	-1.2	-17	-12
CCOC(=O)c1ccc(NC(=O)c2nc(SCc3ccc(F)cc3)ncc2Cl)cc1	-0.7%	1	nt	2.1	nt	nt
CC(CCc1ccccc1)NC(=O)CNC(=O)c1ccccc1Br (configuration not stated)	-0.6%	5	2	0.3	12	-2.6
CCOC(=O)N1CCN(S(=O)(=O)c2ccc3c(c2)NC(=O)CO3)CC1	1.9%	-6	0	-0.4	-2	2.1
CCOc1ccccc1NC(=O)CSc1nc2cccnc2n1C	0.7%	7	-4	-0.3	2	-4.5
COC(=O)c1cc(CC(=O)c2ccc(O)cc2O)c(C)o1	20%[38.3 µM]	1	0	2.1	-16	-3.1
O=C(CSc1nnnn1-c1ccccc1)NC1CCCc2ccccc21 (configuration not stated)	0.2%	-6	3	2.4	2	-1.8
O=C1NC(=O)N(Cc2ccccc2)C1=O	1.3%	-11	9	0.1	2	-0.9
COc1cc(OC)c(NS(=O)(=O)c2ccc(Cl)c(C(=O)OC(C)C(=O)N3CCCC3)c2)cc1Cl (configuration not stated)	2.7%	1	-3	0.6	6	1.1
Cn1c(CNC(=O)c2ccccc2)nnc1SCC(=O)Nc1nccs1	-2.0%	11	-7	-0.3	-13	0.8
Cc1nnc(NC(=O)CSC2CCCCC2)s1	2.1%	-12	1	0.1	-4	-1.5
Cc1n[nH]c(=S)n1Cc1ccccc1	-0.1%	nt	3	nt	-9	1.7
CCOC(=O)N1CCN(C(=O)/C(=C/c2ccccc2OC)NC(=O)c2ccccc2)CC1	0.2%[38.3 µM]	5	3	-0.3	-6	0.9
C/C(=N\NC(=O)C(O)c1ccccc1)c1ccc(Cl)cc1 (configuration not stated)	1.4%	-4	4	0.0	-4	-1.7
CCC(=O)N1CCc2nc(-c3ccccc3)sc2C1	3.4%	nt	3	nt	3	4.0
CC(Sc1nnc(C2CC2)n1C1CC1)C(=O)c1ccc(Br)cc1 (configuration not stated)	-4.4%	4	3	1.4	-12	1.3
CCOC(=O)C1CCCN(C(=O)Nc2ccccc2)C1 (configuration not stated)	4.4%[38.3 µM]	-25	6	1.2	1	-0.3
O=C(O)c1ccc(Nc2nc3ccc(Cl)cc3[nH]2)cc1	1.7%	-9	-12	-0.6	-4	-1.4
COc1ccccc1NS(=O)(=O)c1ccc2c(c1)NC(=O)C(C)S2 (configuration not stated)	1.2%	-28	6	0.0	-3	0.8
CC1CN=C(N(C(=O)Nc2ccccc2)c2ccc(F)cc2)S1 (configuration not stated)	2.4%	8	1	0.0	-2	-4.9
O=C(N/N=C/C=C/c1cccc([N+](=O)[O-])c1)c1ccncc1	-1.1%	-4	-20	-0.4	-2	0.7
CC(O)[C@H]1CNC(=S)N1CCc1cccc(F)c1 (some centres not stated)	-1.8%	-8	2	-0.7	-7	0.7
COc1cc(C)ccc1OCc1cc(C(=O)NC(C)Cn2cncn2)no1 (configuration not stated)	-0.9%	5	1	0.2	-3	4.2
CSCCC(NS(=O)(=O)c1ccc2c(c1)oc(=O)n2C)C(=O)N1CCN(c2cc(Cl)ccc2C)CC1 (configuration not stated)	-0.1%	-10	nt	1.1	nt	nt
Cn1cccc1/C=N\NC(=O)c1cncc(Br)c1	0.4%	4	-6	0.4	-7	-0.5
Cc1cn(C2CCC(CO)O2)c(=O)[nH]c1=O (configuration not stated)	-0.6%&0.5%	-16	-16	-0.3	-15	-1.7
CC(CCN(C)C)OC(=O)c1ccc(C(C)c2ccccc2)o1 (configuration not stated)	-1.7%[38.3 µM]	4	-3	1.7	-18	0.3
CCN(C(=O)C1CC1)C1CCS(=O)(=O)C1 (configuration not stated)	-0.5%	-6	9	2.1	-67	0.5
CCCCCc1c(C)[nH]c2nc3ccccc3n2c1=O	2.5%	19	6	0.0	-1	-1.3
Cc1ccc2oc(=O)c3cc(C(=O)Nc4ccccc4C(N)=O)sc3c2c1	4.6%	1	nt	-0.6	nt	nt
Cc1ccc2nc3c(cc(C(=O)NCC4CCCO4)c(=N)n3CC3CCCO3)c(=O)n2c1 (configuration not stated)	1.7%	-4	-17	2.4	-2	-1.5
